Screening data from PubChem.
TRPML1 inh – inhibitors of human TRPML1 channel; TRPML1-inducible cells, Ca2+ dye fluorescence, FDSS; active compounds read low; inhibition of EC80 agonist-evoked calcium signal; 390,000 compounds, 0.02% hits; activity change, negative = inhibition, % (no concentration beside the values); AID 624415; Q9GZU1; in the data active means activity change below about -50%; inconclusive means about -30% to -50%; inactive means above about -30%;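 further: stimulus is agonist 54-4 at its EC80 concentration; on the % scale 0 is the no-effect control and ±100 the full control effect; compound concentration not given in the record; the text of the record puts the active cut at -80%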
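Tet-induced TRPML1-DL cells loaded with Ca8 no-wash calcium dye were read kinetically on FDSS. Compound addition was followed by EC80 agonist 54-4 (4 uM final); inhibition was read over 110 s.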
D2 potentiator – potentiates the human D2 dopamine receptor allosterically. P14416. 360,000 compounds, 0.23% hits. potentiation, % (concentration not given with the values). DiscoveRx D2 beta-arrestin cells, luminescence, 90 min; 100% = 57 uM dopamine signal. AID 624464; active = potentiation of 50% or more; inconclusive = 30% to 50%; inactive = 30% or less;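 further: tested on top of an EC20 dose of dopamine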
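PathHunter D2 cells, attached overnight at 37 deg C, received compound in DMSO plus dopamine at EC20 (50 nM final) for 90 min at 37 deg C. Beta-arrestin recruitment was read as luminescence after 1 h with detection reagent at ambient temperature.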
Six1-Eya2 inh – Six1/Eya2 interaction inhibition. AlphaScreen GST-Six1/His-Eya2 binding, biochemical; active compounds read low; control for the full effect not named in the record. 360,000 compounds, 0.56% hits. activity change, % (no concentration beside the values); in the data active = activity change below about -65%; inconclusive = about -30% to -65%; inactive = above about -30%; further: on the % scale 0 is the no-effect control and ±100 the full control effect
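GST-Six1 + His-Eya2 (5X stock: 250/500 nM); Tris pH 8.0, 300 mM NaCl, 0.05% BSA, 0.02% Tween 20; GSH donor/Ni acceptor beads; 1 h 37 °C dark; AlphaScreen readout.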
TRPV1 potentiator – enhances activation of the human vanilloid receptor TRPV1; Q8NER1; 320,000 compounds, 0.02% hits; potentiation, % at 8.33 µM; AID 540277; TRPV1-expressing cells, Fluo-8 calcium influx, capsaicin EC20 potentiation; host cell line not named in the record; control for the full effect not named in the record; active means potentiation above 80%; inconclusive means 30% to 80%; inactive means below 30%; further: 0% is about no effect
Target sequence (Q8NER1 whole entry, looked up): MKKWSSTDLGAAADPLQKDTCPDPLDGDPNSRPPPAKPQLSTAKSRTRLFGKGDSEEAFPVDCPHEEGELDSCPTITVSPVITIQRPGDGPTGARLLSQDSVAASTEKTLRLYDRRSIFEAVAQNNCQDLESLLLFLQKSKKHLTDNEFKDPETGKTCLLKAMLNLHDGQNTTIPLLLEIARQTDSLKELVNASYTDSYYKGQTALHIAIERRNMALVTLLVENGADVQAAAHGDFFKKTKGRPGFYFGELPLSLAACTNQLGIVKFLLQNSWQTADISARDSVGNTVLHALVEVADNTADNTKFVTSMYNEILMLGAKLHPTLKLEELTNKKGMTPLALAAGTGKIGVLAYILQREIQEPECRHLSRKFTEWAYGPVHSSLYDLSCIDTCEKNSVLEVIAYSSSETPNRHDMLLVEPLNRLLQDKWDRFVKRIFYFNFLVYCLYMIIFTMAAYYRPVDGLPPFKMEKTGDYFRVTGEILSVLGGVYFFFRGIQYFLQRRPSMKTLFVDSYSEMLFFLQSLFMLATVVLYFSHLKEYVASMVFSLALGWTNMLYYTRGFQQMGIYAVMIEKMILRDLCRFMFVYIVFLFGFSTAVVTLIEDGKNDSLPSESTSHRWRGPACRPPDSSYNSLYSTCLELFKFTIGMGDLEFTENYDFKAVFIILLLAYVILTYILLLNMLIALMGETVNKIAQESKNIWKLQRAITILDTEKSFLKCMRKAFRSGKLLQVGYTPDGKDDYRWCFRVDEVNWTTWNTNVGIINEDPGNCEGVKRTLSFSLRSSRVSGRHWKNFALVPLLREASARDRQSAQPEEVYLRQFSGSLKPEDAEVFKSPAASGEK
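Fluo-8 calcium influx in TRPV1-expressing cells, kinetic read (ex 480/em 520 nm). Compound added and read 3 min for agonist activity, followed by capsaicin at EC20 final and 2 min further read for enhancement.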
CtBP-E1A blk – CtBP/E1A binding inhibition; AlphaScreen GST-E1A/His-CtBP binding, 1536-well; active compounds read low; control for the full effect not named in the record; activity change, % (no concentration beside the values); 340,000 compounds, 0.49% hits; in the data active means activity change below about -65%; inconclusive means about -30% to -65%; inactive means above about -30%; further: on the % scale 0 is the no-effect control and ±100 the full control effect
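AlphaScreen with 125 nM GST-E1A and 125 nM His-CtBP (5X stocks) in Tris pH 8.0, 300 mM NaCl, BSA, Tween 20, TCEP. Compounds preincubated 2 h at 37 deg C, then glutathione donor/nickel acceptor beads added for 1 h at 37 deg C in dark.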
TRPML1 ag – human mucolipin-1 channel agonism; Q9GZU1; TRPML1-expressing cells, Ca2+ dye fluorescence, FDSS; host cell line not named in the record; reference of the full effect not given here; activation, % (concentration not given with the values); 410,000 compounds, 0.12% hits; AID 624414; in the data active = activation above about 50%; inconclusive = about 30% to 50%; inactive = below about 30%; further: 0% is about no effect; the text of the record puts the active cut at 80%
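Tetracycline-induced TRPML1-DL cells are seeded and incubated overnight before loading with a no-wash Ca2+ dye and quencher. Agonist activity is taken from the 110 s fluorescence read following compound pin-transfer on an FDSS, before EC80 54-4 challenge.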
An asterisk follows results filed as active; ? = inconclusive; nt = no result given; & = joins results of further samples.

SMILES	TRPML1 inh	D2 potentiator	Six1-Eya2 inh	TRPV1 potentiator	CtBP-E1A blk	TRPML1 ag
Cc1occc1-c1nnc(SCC(=O)N2CCc3ccccc32)o1	7	-14	19	20	0	0.1
Cn1c(=O)[nH]c(=O)c2c1nc(Br)n2CCSc1nc2ccccc2o1	-11	-4	4	-10	11	1.3
CCCOc1cccc(-c2cc(-c3n[nH]c(=S)n3CC)c3ccccc3n2)c1	19	-15	-13	nt	-13	3.1
Cc1cc(-c2nnc(SCC(=O)Nc3ccc(F)cc3F)n2N)n[nH]1	-1	-1	-1	6	4	-0.5
CN(c1ccccc1C(=O)N1CCCC1)S(C)(=O)=O	-12	-20	16	-4	34	0.1
Nc1nc(-c2ccccn2)nc(N)c1Cc1ccc(Cl)cc1Cl	-19	-16	-80*	14	-91*	-0.1
COc1cccc(C(=O)NNC(=O)Cc2cccs2)c1	-11	-10	-1	-16	6	-0.3
Cc1ccc(CN(C)C(=O)C2CCC(=O)N(CCc3ccccc3)C2)o1 (stereo not drawn)	-6	1	2	-6	1	-0.3
O=C(NCc1ccccc1)c1ccccc1Br	-8	-1	4	3	32	0.6
COc1ccc(CCNC(=O)CSc2nnnn2-c2ccccc2)cc1	-7	-11	3	-5	2	-0.6
Cc1c(NC(=S)NC(=O)c2ccccc2Br)c(=O)n(-c2ccccc2)n1C	-4	-4	-2	23	1	-1.1
CC(Cc1cccs1)NC(=O)Nc1cccc(Cl)c1 (stereo not drawn)	16	-31	4	14	5	0.7
CC(=O)N1CCN(C(=S)c2cccc([N+](=O)[O-])c2)CC1	-3	-4	-13	10	-13	-0.9
CC(/C=C/c1ccc2c(c1)OCO2)=N/NC(=O)c1ccc(C)nc1	22	-17	-8	-5	-25	-0.6
O=C1C2C3C=CC(C4CC34)C2C(=O)N1c1ccc2c(c1)OCO2 (stereo not drawn)	37	0	-5	14	-13	0.4
CC(C)(C)c1ccccc1NC(=O)c1cccnc1	17	-6	3	1	6	3.3
COc1ccc(S(=O)(=O)N2CCCOC2CNC(=O)C(=O)NCCc2ccco2)cc1C (stereo not drawn)	-10	5	-2	-12	1	0.8
O=C(CSc1nnc(-c2csc3c2CCCC3)o1)Nc1ccccc1	-8	1	2	1	5	-1.2
O=[N+]([O-])c1ccccc1S(=O)(=O)Oc1ccccc1/C=N/n1cnnc1	-3	0	-10	-18	2	-0.5
Cc1nnc(SCC(=O)N2CCc3ccccc32)n1-c1ccccc1	-13	10	6	-10	6	-1.0
CCOC(=O)Nc1ccc2c(CNC(C)c3ccccc3OC)cc(=O)oc2c1 (stereo not drawn)	1	-3	-6	-3	-22	1.4
COc1ccc(C(C)(O)c2nc(-c3cccc(C#N)c3)cs2)cc1 (stereo not drawn)	18	-8	12	nt	1	0.0
NC(=O)c1ccc(Oc2ccc3ccc(=O)oc3c2)c([N+](=O)[O-])c1	8	-4	-9	-6	-1	-0.7
CCc1ccccc1NC(=O)CN(C)C(=O)CSc1nnc(Nc2cccc(C)c2)s1	20	-1	-16	-8	-6	1.5
C/C=C\C(=O)Nc1cccc(C2=NOC3(C2)C[C@@H](C(N)=O)N(C(=O)COc2ccc(Cl)cc2)C3)c1 (stereo partly drawn)	-8	-1	-10	23	-4	-1.1
CN(C[C@H](Cc1ccccc1)N(C[C@H](Cc1ccccc1)N(CCc1cc(C(F)(F)F)cc(C(F)(F)F)c1)N=O)N=O)N=O	14	-5	-5	4	0	0.3
O=C(OCn1nnc2ccccc2c1=O)c1ccc2ccccc2n1	10	13	0	20	8	1.1
C=C1CCN([C@@H](Cc2ccccc2)C(=O)NC2CCN(Cc3ccccc3)CC2)S(=O)(=O)c2ccccc21	9	-21	8	nt	-1	-0.2
COc1ccc(CCNS(=O)(=O)c2ccc3c(c2)OCCO3)cc1	16	-5	4	8	-3	-0.6
CCNC(=S)NNC(=O)c1cc(-c2ccc(OC)cc2)nc2ccccc12	-15	-35	-7	-5	-10	2.4
COc1ccccc1C(=O)NC(=O)Cn1nc(C)c([N+](=O)[O-])c1C	5	-4	7	0	9	0.1
CCCN(CCC)c1nc(Cl)nc(NCCN2CCOCC2)n1	0	-8	-13	-14	nt	2.1
CCN1CCN(c2ncc(C(=O)N3CCCc4ccccc43)c3ccccc23)CC1	1	-17	-6	6	-1	-0.1
CC(C)(C)NC(=O)C(c1cccs1)N(CC1CCCO1)C(=O)c1ccc(-c2ccccc2)[nH]1 (stereo not drawn)	15	-8	-26	2	-20	0.9
CCCN=C1N(C)C[C@@H]2[C@@H]3C(=O)N(Cc4ccccc4)C(=O)[C@@H]3[C@](C)(C(=O)OC)N12	-14	-7	9	nt	9	2.6
CCN(CC)c1ccc(/C=N/NC(=O)CNC(=O)c2cccnc2)cc1	-20	0	-4	15	-3	1.3
N/C(COc1ccc(Cl)cc1Cl)=N\O	-9	-17	4	nt	nt	-0.6
CC1CCCCC1NC(=O)NC(=O)COC(=O)c1cncc(Br)c1 (stereo not drawn)	-2	-3	-3	-4	-9	0.4
Cc1cccc(C(C)C)c1NC(=O)COC(=O)C1CC(=O)N(Cc2ccccc2)C1 (stereo not drawn)	24	20	-1	0	6	-0.2
CCSc1nnc(NC(=O)CSc2nnc(Cc3cccn3C)n2-c2ccc(C)cc2)s1	-3	-15	-14	-7	-26	1.7
CC(C)(C)c1ccc(/C=C(\C#N)C(=O)Nc2ccccn2)cc1	nt	-1	-4	-4	6	nt
O=C(O)CCn1[nH]c(=O)c2ccccc2c1=O	2	-7	8	1	2	0.8
Cc1nc(N2CCN(C)CC2)[nH]c(=O)c1Cc1cccc2ccccc12	0	-16	0	-26	1	0.2
CC(=O)Nc1ccc(C(=O)COC(=O)c2c(C)noc2C)c(F)c1	8	-24	0	-9	6	-0.5
CC(=O)NCCc1nc2ccccc2n1CCOc1ccccc1	nt	-10	3	-23	4	nt
O=C(Nc1ccc(Cl)c([N+](=O)[O-])c1)c1ccco1	nt	-1	2	-11	nt	nt
O=C(Nc1ccc(N2CCOCC2)cc1N1CCOCC1)c1ncoc1-c1cccc(F)c1	16	18	1	-4	3	-0.4
CCOc1ccc(NC(=O)Cn2nnc(-c3ccccc3NC(=O)c3cccs3)n2)cc1	-8	-8	2	7	2	-0.4
CCSc1nnc(NC(=O)c2cc(-c3ccc(C)c(C)c3O)n[nH]2)s1	1	-7	-1	30	nt	0.5
COc1ccc(C(=O)N2c3cc4c(cc3C(C)=CC2(C)C)OCO4)cc1	-14	1	-19	-8	-20	2.4
CCn1cc(C(=O)NCc2ccco2)c(=O)c2cc(S(=O)(=O)N3CCc4ccccc4C3)ccc21	-2	-9	-9	3	-16	1.5
CCOC(=O)c1ccc(-n2c(-c3ccco3)nc3ccccc3c2=O)cc1	3	1	4	-12	12	-0.5
COc1ccc(S(=O)(=O)Nc2ccccn2)cc1C	1	-6	-1	18	-9	0.9
Cc1cccc(-n2c(=S)[nH]c3nc4c(cc3c2=O)COC(C)(C)C4)c1	-13	-5	8	?	7	0.7
Cc1[nH]n(-c2ccccc2)c(=S)c1C=NCCCN=Cc1c(C)[nH]n(-c2ccccc2)c1=S	-20	-12	-17	-15	0	-0.2
CC(=O)Nc1ccc(S(=O)(=O)NCCc2ccccc2)cc1	-6	-2	4	-4	9	1.1
O=C(CN1CCN(c2ccccn2)CC1)Nc1nc2ccccc2s1	nt	6	1	-5	nt	nt
CCCCn1nnnc1C(c1cccs1)N1CCN(C/C=C/c2ccccc2)CC1 (stereo not drawn)	nt	-17	-14	nt	-20	0.2
CCCn1c(SCC(=O)NCC2CCCO2)nc2c1c(=O)n(C)c(=O)n2C (stereo not drawn)	-3	-3	3	4	4	-0.4
c1ccc(SCCN2CCN(c3ccccc3)CC2)cc1	-30	-35	-23	-7	-29	-0.3

Following part.
SMILES	TRPML1 inh	D2 potentiator	Six1-Eya2 inh	TRPV1 potentiator	CtBP-E1A blk	TRPML1 ag
CN(Cc1ccccc1)S(=O)(=O)c1ccc2c(c1)OCCO2	18	-12	7	-6	5	0.1
COc1ccc(CNC(=O)NS(=O)(=O)c2ccc(C)cc2)cc1	4&2	-7	7	nt	6	0.8&0.9
Cc1cc(C)c(C(=O)Nc2ccc(S(=O)(=O)Nc3onc(C)c3C)cc2)c(C)c1	-4	0	-16	?	-1	-0.7
CCCCc1ccc(NC(=O)CSc2nnc(C)c(=O)n2N)cc1	13	-2	4	8	-3	0.1
Cc1[nH]c2ccc(C(=O)OC(C)C(=O)N(C)c3ccccc3)cc2c1C (stereo not drawn)	-9	-15	?	-6	7	0.7
CC(OC(=O)C1CC1)C(=O)Nc1cccc(S(=O)(=O)N2CCOCC2)c1 (stereo not drawn)	29	-4	1	nt	-4	2.1
COc1ccc(NC(=O)C2CCCN(S(=O)(=O)c3ccc(Cl)cc3)C2)cc1OC (stereo not drawn)	53	1	-2	-8	-3	-0.7
S=c1[nH]nc(-c2ccc(Br)cc2)n1-c1ccc2c(c1)OCCO2	-9	-5	-7	-4	3	-0.4
COc1ccc(CCNC(=O)CNC(=O)c2ccc(Br)o2)cc1OC	-8	-6	0	7	0	1.4
COCCN(Cc1cc2cc3c(cc2nc1Cl)OCO3)C(=O)c1cccc(C)c1	nt	-5	8	-21	5	nt
CCS(=O)(=O)c1ccc2oc(SCC(=O)N3c4ccccc4CC3C)nc2c1 (stereo not drawn)	6	7	8	17	-5	1.6
COC(=O)CCN(C(=O)c1ccc(C)c([N+](=O)[O-])c1)c1ccccn1	-5	0	4	3	-11	0.1
Cc1ccc(C(=O)NC(=S)NCC2CCCO2)cc1Br (stereo not drawn)	-1	-15	-19	-12	-4	2.1
Cc1nnc(NC(=O)CSc2nnc(-c3ccccc3)n2C)s1	7	-5	-4	-4	0	-0.3
CN1CCN(C(=O)CN(C)S(=O)(=O)c2ccc(F)cc2)CC1	-2	-7	-2	4	5	-0.5
Cc1nc(C)c(C(=O)NNC(=O)Nc2ccc(Cl)cc2)s1	-21	-20	1	3	2	0.8
O=C(NCCCn1ccnc1)C1CC(c2ccccc2Cl)=NO1 (stereo not drawn)	-14	1	-2	-18	3	0.6
Cc1cc(S(=O)(=O)Nc2ccc(C(=O)NC3CC3)cc2)ccc1F	3	-3	-3	nt	5	-0.2

Compounds as they come. About 0.95% of those tested had a hit in this group.
